Screening data (PubChem)
H5N1 CPE = MDCK cell protection from H5N1 avian flu; cytopathic effect, luminescence, 72 h; active compounds read high; no value below 0 was filed and about half of the inactive calls have no number; reference of the scale not given here; inhibition, % at 50 µM; 96,000 compounds, 0.07% hits; in the data active = inhibition above about 25%
The depositor's hits bear a star; i = inactive. Only part of the results is shown. The share of hits here may be higher or lower than overall.

SMILES	H5N1 CPE
O=C(c1cc2ccccc2o1)N1CCCCCC1	1.1
Cc1ccc(S(=O)(=O)N2CCN(c3ccc(S(=O)(=O)N4CCOCC4)cn3)CC2)cc1	i
Cn1c(=O)c2c(nc(OCc3ccc4c(c3)OCO4)n2Cc2ccccc2Cl)n(C)c1=O	3.3
Cc1ccc(N2CC(C(=O)NCc3cccs3)CC2=O)cc1 (stereo not drawn)	i
COc1ccc(-n2nc3cc(C)c(NC(=S)NC(=O)c4ccccc4C)cc3n2)cc1	i
OCC(CO)(CO)N=Cc1cc(Br)ccc1O	i
COc1ccccc1NC(=O)N1CCn2c(nc3ccccc32)C1	i
O=C(CSCc1c(Cl)cccc1Cl)Nc1ccccc1C(=O)N1CCOCC1	0.3
COC(=O)CNC(=O)CSc1nc(N)cc(=O)[nH]1	0.9
CCOC(=O)c1c(NC(C)=O)no[n+]1[O-]	i
NC1=NC(=O)C(Cc2cc(Cl)ccc2Cl)S1 (stereo not drawn)	i
CCC(=O)N1CCN(c2nc(C)nc3sc(C)c(C)c23)CC1	1.0
C=CCSc1nccc(-c2nn(-c3ccc(C)cc3)ccc2=O)n1	1.6
CCOC(=O)CCCNC(=O)COC(=O)c1cc(C)cc(C)c1	i
CC(C)(C)n1nnnc1C(c1ccncc1)N(Cc1ccccc1)Cc1ccco1 (stereo not drawn)	2.4
CCCCNC1=C(Br)C(=O)CC(C)(C)C1	0.1
Cc1ccccc1-c1noc(-c2ccc(O)cc2)n1	1.8
COc1ccccc1C(=O)NCCN1CCN(C(=O)c2ccccc2OC)CC1	0.1
O=C1CCc2cc(S(=O)(=O)N3CCC(C(=O)Nc4nccs4)CC3)ccc2N1	0.3
Cc1ccc(CCNC(=O)C2CCCN(S(=O)(=O)c3cccc4nsnc34)C2)cc1 (stereo not drawn)	0.6
NC(=O)Nc1cccc(C(F)(F)F)c1	i
O=C1c2ccccc2C(=O)N1CCCn1nnc(-c2ccc(N3CCOCC3)cc2)n1	i
C=CCN(C(=O)c1ccccc1)c1ccc(OC)cc1	i
O=C(c1ccc(F)cc1)c1c[nH]c(C(=O)NCc2ccco2)c1	3.2
O=S(=O)(c1ccc(-c2cn3ccccc3n2)cc1)N1CCOCC1	1.7

New compounds follow
SMILES	H5N1 CPE
Nc1c(S(=O)(=O)c2cccs2)c2nc3ccccc3nc2n1CC1CCCO1 (stereo not drawn)	0.4
Cc1ccc(OCc2nnc(NC(=O)c3ccco3)s2)cc1	0.6
CCOc1ccc(-c2nc(CSc3nnc(C)s3)cs2)cc1OC	1.5
CCOc1cc(C(=O)N2CCN(c3ccccc3)CC2)cc(OCC)c1OCC	i
CCOc1ncccc1C(=O)OCC(=O)Nc1c(C)cc(C)cc1C	0.8
COc1ccc(OCCn2c(C)c(/C=N/n3cnnc3)c3ccccc32)cc1	2.4
CC1CCCC(NC(=O)CN(C)S(=O)(=O)c2cccc3cccnc23)C1C (stereo not drawn)	1.6
CC(C)OC(=O)CSc1nnc(Cc2ccccc2)n1C	0.4
N=c1c2c3c(sc2ncn1CCN1CCOCC1)CCCCC3	1.2
CC1=C(/C=C/c2ccccc2)CCN(C)C1	i
Cc1nc(COC(=O)c2ccc(CO)cc2)cs1	i
Cc1cc(C)cc(OCc2nnc(SCC(=O)c3ccccc3)o2)c1	1.1
O=C(CSc1c[nH]c2ccccc12)NCC1CCCO1 (stereo not drawn)	0.5
Cn1c(=O)[nH]c(=O)c2c1nc(Br)n2CC(O)COc1ccccc1 (stereo not drawn)	i
CCS(=O)(=O)N1Cc2ccccc2CC1C(=O)N1CCN(c2ccccc2)CC1 (stereo not drawn)	1.0
COc1cccc2[nH]c3c(N4CCCC(C)C4)ncnc3c12 (stereo not drawn)	0.4
CCOc1ccc2c(c1)c1nnc(SCC(=O)N3CCC(C)CC3)nc1n2C	1.5
Cc1csc(SCCN2C(=O)c3ccccc3C2=O)n1	i
Cc1c2c(nc3nc4ccccc4n13)CCCC2=O	1.8
CCS(=O)(=O)N1CCN(c2ccc([N+](=O)[O-])c(NCc3ccccc3)c2)CC1	2.6
O=C(NCc1ccco1)c1noc2c1CCCC2	4.1
Cc1ccc(C(=O)Oc2ccc(-c3nccc(-c4ccccn4)n3)cc2)cc1	2.3
CC(=O)N1CCc2cc(S(=O)(=O)CCC(=O)NCc3cccs3)ccc21	1.9
COc1ccc(-c2nc(C#N)c(N3CCC(C(N)=O)CC3)o2)cc1OC	2.8
COc1cc(C(=O)Oc2ccccc2)ccc1OCc1c(C)noc1C	0.2

(next part)
SMILES	H5N1 CPE
Cc1cc(=O)oc2cc(OCC(=O)NCCCN3CCOCC3)ccc12	0.1
N#C/C(=C/c1cccc(C(F)(F)F)c1)c1nc(CCN2C(=O)c3ccccc3C2=O)cs1	i
N=C1C(c2ccccc2)=C(O)CN1c1ccc2c(c1)OCO2	0.6
COCCn1c(N)c(C(=O)OCc2ccccc2)c2nc3ccccc3nc21	i
CN(CC(=O)O/N=C(\N)c1cccc([N+](=O)[O-])c1)S(=O)(=O)c1ccccc1	0.8
O=C(CN1C(=O)c2ccccc2S1(=O)=O)NCCSC1CCCCC1	0.2
CCCCOCP(=O)(CCCC)COCCCC	0.8
CCc1cc(OCCCSc2nc(C)cc(=O)[nH]2)ccc1Cl	i
O=C(COC(=O)c1ccccc1NC(=O)c1ccccc1)c1ccc([N+](=O)[O-])cc1	1.3
COc1ccc2c(c1)C(c1ccc([N+](=O)[O-])cc1)=NNC(c1ccco1)=N2	0.3
CCOc1cc(C(=O)N2CCOCC2)ccc1OCc1ccccc1	0.1
c1ccc2cc(CN3CCOCC3)ccc2c1	i
CNC(=O)c1cccn1-c1ccsc1C(=O)OC	1.3
O=C(c1cc2ccccn2n1)N1CCN(c2ccccn2)CC1	0.8
O=C(OCc1ccccc1)c1cccc(-c2nnn(Cc3ccccc3)n2)c1	0.7
Cn1c(SCc2ccc(Br)cc2)nnc1-c1ccncc1	1.4
Oc1ccc(-c2cccc(-c3ccc(O)cc3)n2)cc1	0.8
CC1CCCC(C)N1C(=O)C1CC(c2ccc(F)cc2)=NO1 (stereo not drawn)	1.5
O=C(c1ccco1)N1CCN(C(=O)c2cccs2)CC1	0.5
O=C1NCCc2c1[nH]c1ccccc21	i
CCOC(=O)N1CCC2(CC1)C(C#N)=C(N)Oc1n[nH]c(C)c12	i
CCCCOc1ccccc1-c1cc(C(=O)O)[nH]n1	i
CSc1ccc(C2C3(C#N)C(N)=NC4(OCCO4)C23C#N)cc1 (stereo not drawn)	0.8
Cc1ccc(C(C)C)c(OCC(=O)Nc2ccc(Cl)cn2)c1	i
COc1ccc2c(c1)Cc1sc(NC(=O)c3ccco3)nc1-2	i

Other structures.
SMILES	H5N1 CPE
c1coc(CN=C2NC(=NCc3ccco3)c3ccccc32)c1	i
CC(=O)c1ccc(NS(=O)(=O)Cc2ccccc2)cc1	1.1
COc1cccc(C2=NO[C@@H]3C(=O)N(c4ccc5c(c4)OCCO5)C(=O)[C@H]23)c1OC	0.2
CS(=O)(=O)Nc1cccc(C(=O)CC2(O)C(=O)Nc3ccccc32)c1 (stereo not drawn)	i
Cc1ccc(Cn2ncc3c(NCCCN4CCOCC4)ncnc32)cc1	i
CCNC(=O)N1c2ccc(OC)cc2C(C)=CC1(C)C	0.7
O=C(NCc1cccnc1)c1cccc(S(=O)(=O)N2CCCCC2)c1	0.2
Cc1ccccc1-c1nc(CS(=O)(=O)CC(=O)NCCCN2C(C)CCCC2C)c(C)o1 (stereo not drawn)	0.1
Nc1c(NCCN2CCOCC2)c2ccccc2oc1=O	1.5
Cc1ccccc1OCc1nc2ccccc2c(=O)n1NC(=O)c1ccco1	i
CCOCCCn1c(=O)c(NC(=O)c2ccc(OCC)cc2)c2n(c1=S)CCCCC2	i
CCN1CCCC1CNC(=O)CS(=O)(=O)Cc1nc(-c2ccccc2C)oc1C (stereo not drawn)	i
COc1ccccc1NC(=O)COc1ccc(Br)cc1CO	0.1
Cn1c(=O)oc2cc(S(=O)(=O)NCc3ccco3)ccc21	1.8
O=c1c2cc(Br)ccc2nc(-c2cccc(C(F)(F)F)c2)n1O	3.7
Cc1ccccc1-n1c(=O)/c(=C\c2ccco2)s/c1=C(/C#N)C(=O)Nc1ccccc1	0.0
CCOc1ccc(S(=O)(=O)NCC(=O)N(C)Cc2cccnc2)cc1	0.0
CCOc1ccc(CSC2=NCCN2)cc1Cl	0.3
CN(CC(=O)N1CCCCCC1)S(=O)(=O)c1cccc2cccnc12	0.7
O=C(CSCc1cccc(Br)c1)N1CCOCC1	i
O=[N+]([O-])c1ccc2c(c1)C(N1CCOCC1)/C(=C/COc1ccc3ccccc3c1Br)O2 (stereo not drawn)	2.6
CC1CCN(C(=O)CCCOc2cc(=O)n(C)c3ccccc23)CC1	0.5
O=C(O)C(Cc1ccccc1)N1C(=O)/C(=C/c2cccc3ccccc23)SC1=S (stereo not drawn)	0.6
CCc1nc(NCc2ccco2)c2oc3ccccc3c2n1	1.1
Cc1cccc(N/C(=N\S(=O)(=O)c2ccccc2)C(F)(F)F)c1	1.6

(list continues)
SMILES	H5N1 CPE
CCCCC(=O)Nc1sc2c(c1-c1nc3ccccc3s1)CCN(C(C)=O)C2	i
COc1ccccc1C(=O)Nc1nc(N)n(-c2ccccc2)n1	i
O=c1[nH]n(-c2ccc(Cl)cc2)c2ncccc12	i
N#Cc1nc(-c2ccco2)oc1N1CCN(C(c2ccccc2)c2ccccc2)CC1	i
NC(=O)SCC(=O)Nc1cccc(Cl)c1	i
COc1cccc(NC=C2C(=O)OC3(CCCCC3)OC2=O)c1	i
CCCc1nnc(NC(=O)NCCN2C(=O)C3C4C=CC(C4)C3C2=O)s1 (stereo not drawn)	0.5
Cc1c(C(=O)NCc2ccc3c(c2)OCO3)oc2ccc(Br)cc12	0.8
CCOC(=O)/C(C(N)=NCC(C)C)=C(/O)c1ccccc1	0.6
O=C(Nc1cc(C(F)(F)F)ccc1N1CCCC1)c1ccc2c(c1)OCO2	i
COC(=O)c1ccccc1NC(=O)c1cccc(NC(=O)CSCc2ccccc2)c1C	0.4
CCCCOC(=O)c1cc(=O)[nH]c2ccccc12	1.6
O=[N+]([O-])c1ccc2nccn2c1	i
FC(F)(F)c1cccc(-c2nnc3ccc(C(F)(F)F)cn23)c1	2.0
CCNC(=O)OCC(CC)NC(=O)OCC(C)C (stereo not drawn)	i
COC(=O)c1cncn1C(C)c1ccccc1 (stereo not drawn)	0.8
COCCN1C(=O)c2ccc(C(=O)O)cc2C1=O	0.6
O=C(CCN1CCN(c2ccc(F)cc2)CC1)Nc1ccc(F)cc1	i
Clc1ccc(-c2csc(N3CCc4ccccc4C3)n2)cc1	i
COc1cc(C(=O)NCCOc2cc(C)cc(C)c2)c(Br)c(OC)c1OC	i
Cc1cc(=O)[nH]c(SCC(=O)NCCc2ccccc2)n1	i
CC(C)(C)c1[nH]nc2c1C(C1C=CCCC1)C(C#N)=C(N)O2 (stereo not drawn)	5.0
Cc1ccccc1OCC(=O)NN1Cc2ccccc2C1=N	0.8
CC(=O)N1CCN(c2ccc(NC(=O)C(C)Oc3ccc(Cl)cc3Cl)cc2)CC1 (stereo not drawn)	i
C(=C/c1ccnc2nc(SC/C=C/c3ccccc3)nn12)/c1ccccc1	0.4

Later entries.
SMILES	H5N1 CPE
Cc1cc(C)cc(OCC(=O)Nc2cccc(-c3nc4ncccc4o3)c2)c1	i
COc1cc(/C=C/c2ccc3cccc(OC)c3n2)c(OC(C)=O)c([N+](=O)[O-])c1	0.6
CCn1cc(C(=O)NCCCOC)c(=O)c2cc(S(=O)(=O)N(C)C)ccc21	i
CCOC(=O)C(CCCCOc1ccc([N+](=O)[O-])cc1)C(=O)OCC	2.8
O=C(Cc1ccccc1)NCc1ccc2c(c1)OCO2	i
CC1Cc2nc(SCC(N)=O)n(C)c(=O)c2S1 (stereo not drawn)	1.3
CC1CCN(c2[nH]c(=S)c(C#N)c3c2CCCC3)CC1	0.9
CCOC(=O)Cc1csc(NC(=O)c2cccs2)n1	0.6
Cc1cc(C(=O)N/N=C/c2cccnc2)c(C)o1	0.5
Cc1ccc(C(=O)NCCn2cc(SCC(=O)Nc3cc(C)on3)c3ccccc32)cc1	i
CCCN(/C=N/c1sc2c(c1C#N)CCCCC2)CCC	2.9
CCCn1c(SCC(=O)N2CCCc3ccccc32)nnc1-c1ccco1	0.3
Cc1c(CNC(=O)c2cnn3c2NC(c2ccccc2)CC3C(F)(F)F)cnn1C (stereo not drawn)	0.2
CN(C)c1ccc(CNC2C3CC4CC(C3)CC2C4)cc1 (stereo not drawn)	3.0
O=C(NCc1cccnc1)C1CCCN(S(=O)(=O)c2ccc(Cl)cc2)C1 (stereo not drawn)	1.3
O=C(Nc1ccon1)c1ccc(Br)o1	i
CCCCc1ccc(-c2csc(/C(C#N)=C\c3ccc(C)o3)n2)cc1	i
O=C(CCn1nnc2ccccc21)N1CCN(c2ccccc2)CC1	i
